High-throughput results deposited in PubChem BioAssay by several laboratories.
B2AR ag: human beta-2 adrenergic receptor agonism by FAP | Am2.2-beta2AR cells, FAP receptor internalization, flow cytometry; reference of the scale not given here | actives 0.43% (n = 340,000) | P07550 | response, % (no concentration beside the values);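 active = response above a set limit, near 3 SD of response in nonfluorescent compounds, cut at about 42% in these data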;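 also: stock transfer was 100 nL into about 11 µL; a reference agonist was the positive control; negative values mostly stem from fluorescent compounds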
rRNA inh HTS: inhibits bacterial ribosomal RNA function over humanized ribosomes | E. coli WT GFP vs humanized-ribosome RFP mutants, fluorescence, 24 h; stronger effect = lower value; DMSO median 0, no signal -100 | GFP signal change (wild-type ribosome), % (test concentration not listed) | actives 1.6% (n = 350,000) | AID 720706;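 active = significant combined selectivity score with lowered wild-type GFP, culture density cut under 30%, mutant RFP and density less affected; inactive = any of these conditions unmet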; also: one replicate is shown; some compounds called inactive have numbers as strong as hits
A1 inh: inhibitors of the anti-apoptotic protein A1, read as caspase activation; MEF A1-2A-BIM cells, Caspase-Glo 3/7 luminescence, 3 h; percent of clofoctol response, vehicle zero; AID 2462; caspase activation, % (test concentration not listed); actives 0.066% (n = 330,000);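 active = over half of replicate activation scores above 10%, or exactly half above 10 with the replicate mean above 10; inconclusive = replicate mean below 10 yet half the replicates above 10; inactive = over half of replicates below 10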;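 also: wells of about 30 µL received 50 nL stock; many hits fall short of the cut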
LANA-H2A inh: blocks KSHV LANA binding to histone H2A/H2B | cell-free LANA-H2A/H2B peptide, fluorescence polarization | inhibition, % (test concentration not listed) | actives 0.6% (n = 320,000) | AID 2629; in the data active = inhibition mostly above about 10%, no sharp cut-off; inactive = mostly below about 6.7%;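 also: stock transfer was 7.5 nL into about 10 µL; 0% = median of vehicle wells and 100% = median of positive control wells; one replicate is shown; the record names a cut of 25% in any replicate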
Target sequence (Q9QR71 whole entry, looked up): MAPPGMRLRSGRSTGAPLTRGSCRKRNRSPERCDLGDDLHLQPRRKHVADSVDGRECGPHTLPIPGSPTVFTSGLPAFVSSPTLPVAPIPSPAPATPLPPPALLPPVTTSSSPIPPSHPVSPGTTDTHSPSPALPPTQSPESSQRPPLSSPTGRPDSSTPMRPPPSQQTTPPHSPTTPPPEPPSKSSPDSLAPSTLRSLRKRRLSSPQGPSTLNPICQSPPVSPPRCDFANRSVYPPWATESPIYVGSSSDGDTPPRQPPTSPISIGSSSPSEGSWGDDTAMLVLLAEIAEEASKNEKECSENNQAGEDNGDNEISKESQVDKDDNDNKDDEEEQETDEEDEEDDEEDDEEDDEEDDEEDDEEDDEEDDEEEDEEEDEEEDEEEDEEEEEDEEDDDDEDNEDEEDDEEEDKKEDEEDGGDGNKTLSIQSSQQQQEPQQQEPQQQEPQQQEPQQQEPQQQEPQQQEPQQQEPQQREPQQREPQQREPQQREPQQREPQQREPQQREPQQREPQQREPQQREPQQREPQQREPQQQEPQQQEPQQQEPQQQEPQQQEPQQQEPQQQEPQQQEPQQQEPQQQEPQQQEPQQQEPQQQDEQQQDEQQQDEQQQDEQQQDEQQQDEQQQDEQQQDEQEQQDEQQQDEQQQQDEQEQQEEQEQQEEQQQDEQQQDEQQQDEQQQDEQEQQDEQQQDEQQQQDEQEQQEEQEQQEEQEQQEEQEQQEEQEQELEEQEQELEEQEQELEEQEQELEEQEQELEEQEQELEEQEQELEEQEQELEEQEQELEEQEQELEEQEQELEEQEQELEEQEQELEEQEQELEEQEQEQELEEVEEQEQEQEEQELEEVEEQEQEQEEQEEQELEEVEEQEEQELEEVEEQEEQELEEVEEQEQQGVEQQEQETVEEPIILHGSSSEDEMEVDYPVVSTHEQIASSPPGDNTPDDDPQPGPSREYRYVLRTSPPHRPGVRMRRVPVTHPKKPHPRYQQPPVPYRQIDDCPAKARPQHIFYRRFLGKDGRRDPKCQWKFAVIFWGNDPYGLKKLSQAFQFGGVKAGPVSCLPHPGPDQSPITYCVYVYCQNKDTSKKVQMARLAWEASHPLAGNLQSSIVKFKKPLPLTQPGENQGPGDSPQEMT
Calb FLC: affects C. albicans growth with fluconazole; actives 0.57% (n = 300,000); C. albicans CaCi-2 (fluconazole-resistant clinical isolate) + fluconazole, Alamar Blue growth, 48 h; growth inhibition, % (test concentration not listed); AID 1979;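 active = most replicates above 75%; inconclusive = exactly half above 75%; inactive = most below 75%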;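 also: all wells also contain fluconazole at 8 µg/ml as a sub-toxic cotreatment; 0% = median of DMSO wells and 100% = median of geldanamycin control wells; wells of about 8 µL received 7.5 nL stock; the first replicate is given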
Beta cell apopt: beta cell apoptosis inhibition | protection from apoptosis, % (no concentration beside the values) | actives 0.8% (n = 300,000) | AID 435005 | INS-1E cytokine-induced death, ATP luminescence, 48 h; percent of positive-control rescue, neutral wells zero;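 active = all replicates at 75% or more, or half of them and the mean; inconclusive = half reach 75% but not the mean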;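 also: 0% = cytokine-treated negative control wells and 100% = positive control rescue; higher means more ATP so stronger rescue from cytokine killing; wells of about 40 µL received 100 nL stock; the first replicate is given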
T cruzi inh: blocks replication of Trypanosoma cruzi | T. cruzi beta-gal in NIH3T3, luminescence, 90 h | inhibition, % (test concentration not listed) | actives 1.4% (n = 300,000);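 active = mean inhibition across valid replicates above about 55%, limit read from the data; inconclusive = mean below that limit but half or more replicates reach it; inactive = mean below it, under half of replicates reach it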;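 also: signal also drops with host cell toxicity which is not excluded here; 0% = plate median of DMSO wells and 100% = zero luminescence signal; higher percent means less beta-gal luminescence so fewer parasites; stock transfer was 50 nL into about 50 µL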
ALR inh: human ALR oxidase inhibition via reduced H2O2; purified ALR, DTT oxidation, H2O2 HRP-luminol luminescence; inhibition, % (concentration not given with the values); actives 3.8% (n = 290,000); AID 485317;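 active = mean and each replicate at 75% or more; inconclusive = only one of the two met; inactive = neither met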;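 also: stock transfer was 7.5 nL into about 7.5 µL; 0% = neutral wells and 100% = wells with inactivated enzyme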
rRNA inh HTS OD600: second read-out of rRNA inh HTS, no call of its own (marks repeat the call); OD600 change, %; measured here: OD600 growth;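 optical density of the mix in the first replicate; 0 = DMSO median and -100 = no signal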
rRNA inh HTS RFP: further read-out of rRNA inh HTS, marked with its call; RFP signal change, %; measured here: RFP humanized mutant strains;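 first replicate; 0 = DMSO median and -100 = no signal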
Starred values were filed as active, the others as inactive; ? = inconclusive; / = no result given. The list is partial; the hit share may differ from the screen's.

SMILES,A1 inh,Beta cell apopt,ALR inh,rRNA inh HTS RFP,Calb FLC,T cruzi inh,B2AR ag,rRNA inh HTS OD600,LANA-H2A inh,rRNA inh HTS
CC(=C1C(=O)c2ccccc2C1=O)N1CCN(c2ccc(F)cc2)CC1,0.1,-5.1,-5.9,4.2,-18.8,10.6,6.7,8.2,-2.3,13.3
CCOc1ccc(NC(=O)CSc2nnc(C3CC3)n2C2CC2)cc1,-0.5,1.4,-2.5,-1.4,/,/,-8.9,4.3,-0.7,-1.1
CCOc1ccc(C(=O)Nc2c3c(nn2C(C)(C)C)CSC3)cc1OCC,0.2,2.2,-2.2,/,20.0,0.6,4.2,/,0.5,/
Cc1ccc(NC(=O)C/C(N)=N/OC(=O)c2ccccc2)cc1,0.5,-0.5,/,0.6,23.0,10.8,2.6,6.5,2.6,9.4
COc1ccc(S(=O)(=O)Nc2ccc(S(=O)(=O)N3CCCCC3)cc2)cc1OC,1.1,-1.8,-21.1,/,-8.7,7.0,-3.1,/,-0.5,/
CCCc1nnc(NC(=O)CCCN2C(=O)c3ccccc3C2=O)s1,-0.1,-7.1,5.0,/,4.0,-40.2,-5.0,/,0.5,/
Cc1ccccc1S(=O)(=O)c1cc(C#N)c(=O)[nH]c1N,-0.1,-7.4,-6.0,3.7,3.3,-13.1,3.9,9.8,-1.4,18.5
Cc1cc(NC(=O)CSc2nc3c(sc4ccccc43)c(=O)n2CCc2ccccc2)n[nH]1,0.0,11.2,-6.0,/,-5.8,-19.8,8.2,/,2.2,/
CC1Cc2cc(S(=O)(=O)N3CCN(c4ccc(Cl)cc4)CC3)ccc2N1C(=O)C1CC1 (stereo not drawn),-0.8,29.7,-3.3,0.0,-1.1,24.5,-7.8,8.1,-1.0,3.7
COc1ccc(CC2(C)OC(c3ccncc3)=NN2C(C)=O)cc1 (stereo not drawn),-0.3,2.2,5.7,-4.3,?,16.5,5.0,6.6,1.0,-9.2
O=C(CSc1ncnc2scc(-c3ccccc3)c12)N1CCN(c2ccccc2F)CC1,0.1,-0.5,-63.4,2.0,2.0,20.2,-4.8,0.2,0.5,6.6
O=C(CCN1C(=O)/C(=C/c2ccc(F)cc2)SC1=S)Nc1cccnc1,1.1,-0.2,-6.8,-0.8,-0.6,-10.8,-8.2,3.9,-0.4,3.9
CC1(C)C(=O)OC(c2ccccc2)C(C)(C)C1=O (stereo not drawn),-0.3,-9.3,-8.5,-3.2,2.0,-3.0,1.9,-5.7,-0.8,3.4
CCC(C(=O)Nc1ccccc1)c1ccccc1 (stereo not drawn),-1.2,1.5,-8.7,/,-29.5,-5.7,3.7,/,-0.6,/
CC(OC(=O)CCc1nc2ccccc2[nH]c1=O)c1ccccc1 (stereo not drawn),-0.3,-4.3,1.8,-2.3,-3.2,-11.6,-2.8,-0.1,-4.7,-3.7
CC(C)C(NC(=O)CN1C(=O)c2ccccc2C1=O)c1ccccc1 (stereo not drawn),-0.3,-4.7,-15.7,-11.2,-0.3,-0.6,6.2,-13.5,1.1,-11.5
CC(C)(C)c1cc(-c2n[nH]c(=S)n2-c2ccc(Cl)cc2)n[nH]1,-1.1,-3.2,93.4*,5.8*,5.7,-6.7,9.0,11.7*,-3.9,-31.3*
CC(=O)c1c(C)[nH]c(C(=O)OCC(=O)Nc2ccccc2Cl)c1C,-0.1,0.0,-1.5,26.1,-19.0,1.7,-11.6,-26.3,0.3,-19.1
O=C(Cc1ccccc1)Nc1cccc(N2CCCC2)c1,0.0,-6.6,-25.4,/,34.8,/,3.6,/,1.2,/
Cc1cc2ccccn2c1C(=O)c1cc([N+](=O)[O-])cc([N+](=O)[O-])c1,0.4,11.4,-52.0,-2.9,42.4,65.2*,-1.6,0.4,-1.4,14.4
Cc1ccc2oc(Nc3nc(C)cc(C)n3)nc2c1,-0.3,-4.3,-0.8,/,-0.5,-6.9,-5.7,/,-3.0,/
Cn1cc(Cl)nc1C(O)c1ccccc1 (stereo not drawn),0.5,2.2,-30.8,-7.9,-1.5,-9.0,4.5,12.6,3.3,3.2
CS(=O)(=O)c1ccc(Cl)c(NC(=O)COC(=O)CCc2c[nH]c3ccccc23)c1,-1.1,0.9,-0.5,-5.1,-1.6,0.6,0.3,9.1,-0.5,2.1
Cc1ccc(N2C(=O)CC(Sc3nc4ccccc4o3)C2=O)cc1Cl (stereo not drawn),0.4,-9.6,/,/,-8.4,69.5*,9.1,/,-3.0,/
COc1cc(NC(=O)C2CCN(S(=O)(=O)c3cccs3)CC2)cc(OC)c1,-0.1,-4.0,-5.3,3.8,-1.3,4.7,9.4,-7.1,-1.8,-4.9
CCC1CCCCN1CCCn1c(=S)[nH]c2ccccc2c1=O (stereo not drawn),0.3,-1.1,72.7,/,-3.6,-38.2,9.4,/,-2.5,/
O=c1[nH]c(C2CCCCC2)nc2ccccc12,-0.3,0.6,-13.3,/,9.5,-7.6,-2.3,/,-3.8,/
COc1ccc(OC)c(C2C(C#N)=C(N)N(N(C)C)C3=C2C(=O)CC(C)(C)C3)c1 (stereo not drawn),1.1,-6.0,-32.7,2.7,1.0,11.8,1.2,4.4,0.2,1.2
CN(C)c1ccc(N=Cc2ccco2)cc1,-1.2,34.8,94.0*,/,/,/,-4.7,/,0.6,/
CC(=O)c1cc(-c2ccc(F)cc2)n(CCC(=O)NC(C)(C)C)c1C,0.1,9.8,0.6,4.0,-7.4,-1.3,14.4,11.6,-2.4,10.4
CN(C)c1ccc(Nc2cc(Cl)ncn2)cc1,0.4,9.5,99.5*,-0.8,2.4,5.3,-0.4,6.9,-0.4,0.7
NCCCC[C@@H](C(=O)NCCCCCCCCCCC(=O)N1CCNCC1)n1cc(CCCC(=O)O)nn1,1.0,-3.6,/,/,16.0,-7.4,-5.5,/,-1.5,/
CCc1nc2c(nnn2Cc2ccc(F)cc2)c(=O)[nH]1,-1.0,1.9,-3.1,0.1,7.1,4.4,-3.1,-0.9,1.3,8.5
Cc1ccc(C(=O)N2CCN(S(=O)(=O)c3ccc(C)c([N+](=O)[O-])c3)C2)cc1,0.7,/,-1.5,1.8,-8.7,20.1,-2.7,5.7,-3.9,2.8
O=C(Nc1ccc(F)cc1)c1ccc2c(=O)n(CC3CCCO3)c(=S)[nH]c2c1 (stereo not drawn),-1.3,/,22.3,0.3,-2.7,-3.7,7.5,-0.9,-4.5,-6.7
Cc1cc(NS(=O)(=O)c2ccc(NC(=O)COc3ccccc3Cl)cc2)no1,-0.1,0.7,10.3,/,-8.1,-15.4,1.4,/,2.2,/
Cn1c(=O)c2c(nc(NCCCO)n2CCc2ccccc2)n(C)c1=O,-0.9,3.0,49.1,/,8.4,7.1,-6.3,/,-0.1,/
CN(C(=O)c1ccc(NC(=O)Cc2ccccc2)cc1)c1ccccc1,-8.1,-0.2,-3.2,-1.1,-4.0,-15.4,8.7,-5.6,3.2,-0.3
Cc1cn2c(=O)c(C(=O)N3CCN(c4ccccc4)CC3)cnc2s1,0.6,-1.1,29.3,-0.2,-3.1,-9.0,-10.2,19.4,1.3,5.0
COc1ccc2cc(CCNC(=O)c3cc4ccccc4o3)c(=O)[nH]c2c1,1.2,-7.9,-0.8,-2.3,3.3,6.1,-6.5,-4.5,4.3,-3.6
COc1ccc(S(N)(=O)=O)cc1C(=O)NCCCN1CCN(c2ccc(C)cc2)CC1,0.2,1.0,68.1,/,-5.3,-5.9,-8.6,/,3.1,/
O=C(NC(=S)Nc1ccc2oc(=O)ccc2c1)c1cccc(F)c1,1.5,3.6,-26.0,-0.5,2.1,-17.7,-2.9,11.8,5.1,9.9
CCCCCC(=O)Nc1cccc(C2=NOC3(C2)C[C@H](C(N)=O)N(C(=O)[C@H]2CCC(=O)N2)C3)c1 (stereo partly drawn),-0.4,0.5,-8.0,2.7,0.5,-8.5,-2.1,12.2,-0.1,7.7
CC(C)n1nnnc1SCC(=O)Nc1ccccc1F,-0.4,/,-5.5,-1.5,3.2,9.1,3.6,7.6,4.8,4.2
O=C(Nc1cc2c(cc1[N+](=O)[O-])OCCO2)c1cccnc1,-0.2,1.6,/,3.9,/,/,/,2.9,5.3,13.9
O=C(O)C[C@H]1c2ccc(C(F)(F)F)cc2S(=O)(=O)N1C1CCCCC1,0.5,-1.4,/,-1.5,-6.4,-0.3,-8.8,-14.0,0.2,-6.0
CC(C)(O)C#Cc1ccc([C@@H]2C[C@H]3CN(c4ccccc4)C(=O)[C@]34CCCN24)s1,1.1,33.0,91.5*,5.8,-4.3,-33.8,-7.8,-8.9,-1.6,-2.3
Cc1ccc(NC(=O)COC(=O)c2ccccc2-c2nc3ccccc3s2)c(C)c1,1.0,-5.6,-5.7,0.7,0.1,-2.3,0.8,-29.3,3.5,-23.0
COc1cccc(CNC(=O)CCC2CCCN(C(=O)c3ccccc3N(C)C)C2)c1 (stereo not drawn),-0.7,1.1,-9.8,-1.4,-5.1,3.7,-1.5,0.6,2.0,3.3
COc1cc(C(=O)NNC(=O)c2ccccc2OCc2c(C)noc2C)cc(OC)c1OC,-0.5,1.2,/,/,/,/,5.6,/,-2.2,/
O=S1(=O)[C@H]2C[C@@H]3CC[C@]2(CN1Cc1cccc(F)c1)O3,0.0,-6.7,-2.8,-3.7,14.3,-24.4,0.9,-3.5,1.1,-1.6
Cc1nn(C)c(C)c1CN(C)C(=O)c1cc2n(n1)C(C(F)(F)F)CC(c1cccs1)N2 (stereo not drawn),-0.1,12.7,-15.0,/,1.8,-21.0,5.2,/,0.8,/
NNc1nc2c(F)cc(F)cc2s1,-1.5,2.1,15.9,-5.2*,-42.2,8.0,8.8,-14.0*,0.0,-24.9*
Fc1ccc2[nH]c3c(NCc4ccccc4)ncnc3c2c1,2.6,58.5,0.4,-20.6,-0.4,11.2,10.2,-81.0,-3.4,-59.5
O=C(Cn1cnc2c(nnn2Cc2ccc(F)cc2)c1=O)Nc1ccccc1,-0.1,-5.1,-10.5,0.4,6.9,-15.7,-1.5,6.7,-0.5,6.3
Cn1c(=O)c2c(nc(NC(Cc3ccccc3)C(=O)O)n2Cc2ccccc2)n(C)c1=O (stereo not drawn),0.3,2.2,/,/,-6.2,1.9,6.8,/,1.5,/
Cc1ccc(SCC(=O)NC(=O)c2ccccc2Br)c(C)c1,-2.1,-20.5,-0.6,-0.3,/,/,-3.3,-12.8,-0.7,-16.6
O=C(NNC(=O)c1sc2cccc(Cl)c2c1Cl)NC1CCCCC1,2.4,0.6,-0.1,/,3.7,16.5,3.0,/,1.5,/
